AF4-AF9 inh: blocks AF4 peptide binding to human AF9 | AlphaScreen, biotin-AF4 peptide binding to FLAG-AF9 | inhibition, % at 10 µM | P42568 | actives 0.47% (n = 350,000);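 active = every replicate reaching a set inhibition limit, whatever the replicate mean, cut at about 25% in these data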;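 also: 0% = plate neutral control median and 100% = total signal loss; the record names both 10 and 1 µM as test concentration; the first replicate is given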
Target sequence (P42568 whole entry, looked up): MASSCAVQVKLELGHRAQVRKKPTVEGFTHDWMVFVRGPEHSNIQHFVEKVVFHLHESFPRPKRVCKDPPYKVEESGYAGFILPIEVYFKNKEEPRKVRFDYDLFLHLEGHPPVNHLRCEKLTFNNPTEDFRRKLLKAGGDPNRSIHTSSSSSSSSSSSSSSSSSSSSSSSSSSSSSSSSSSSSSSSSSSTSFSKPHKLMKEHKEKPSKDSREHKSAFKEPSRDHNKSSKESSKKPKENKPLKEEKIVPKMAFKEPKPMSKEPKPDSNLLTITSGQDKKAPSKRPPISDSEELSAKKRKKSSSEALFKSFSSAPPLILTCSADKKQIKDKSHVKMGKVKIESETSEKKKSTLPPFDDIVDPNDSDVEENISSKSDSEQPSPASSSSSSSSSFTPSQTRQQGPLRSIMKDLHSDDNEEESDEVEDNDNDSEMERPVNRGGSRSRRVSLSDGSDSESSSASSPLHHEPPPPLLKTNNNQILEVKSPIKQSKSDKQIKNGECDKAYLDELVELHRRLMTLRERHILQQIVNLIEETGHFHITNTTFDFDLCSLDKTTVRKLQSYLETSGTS
T cruzi inh: blocks replication of Trypanosoma cruzi. T. cruzi beta-gal in NIH3T3, luminescence, 90 h. actives 1.4% (n = 300,000). inhibition, % (no concentration beside the values). AID 1885;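 active = mean inhibition across valid replicates above about 55%, limit read from the data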;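 also: signal also drops with host cell toxicity which is not excluded here; 0% = plate median of DMSO wells and 100% = zero luminescence signal; higher percent means less beta-gal luminescence so fewer parasites; stock transfer was 50 nL into about 50 µL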
FGF22 binding: binders of recombinant human FGF22 by thermal shift; actives 1.5% (n = 340,000); Q9HCT0; SYPRO orange fluorescence; percent of sucrose octasulfate shift, DMSO zero; calls only at 9.99 µM;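 active = melting point raised past a set limit in the mean and every replicate; three in four hits are not shown here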
Target sequence (Q9HCT0 whole entry, looked up): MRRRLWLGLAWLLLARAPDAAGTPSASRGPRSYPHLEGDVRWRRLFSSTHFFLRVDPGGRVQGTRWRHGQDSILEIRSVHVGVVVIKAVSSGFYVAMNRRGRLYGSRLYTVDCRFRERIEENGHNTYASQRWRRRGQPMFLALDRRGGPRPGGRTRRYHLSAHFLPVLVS
RanGTP-Impb inh: disruptors of Ran-importin-beta complex formation – biochemical, FRET, CFP-Ran, YFP-importin-beta, homogeneous, primary screen; cell-free CFP-Ran/YFP-importin-beta FRET ratio; inhibition, % (test concentration not listed); actives 1.1% (n = 300,000); AID 2216;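 active = most replicates above 15%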;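 also: 0% = DMSO wells and 100% = Ran loaded with GDP instead of GTP; wells of about 40 µL received 100 nL stock; the first replicate is given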
ALR inh: inhibitors of human sulfhydryl oxidase ALR; purified ALR, DTT oxidation, H2O2 HRP-luminol luminescence; inhibition, % (concentration not given with the values); actives 3.8% (n = 290,000); P55789;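 active = mean and each replicate at 75% or more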;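 also: stock transfer was 7.5 nL into about 7.5 µL; 0% = neutral wells and 100% = wells with inactivated enzyme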
Target sequence (P55789 whole entry, looked up): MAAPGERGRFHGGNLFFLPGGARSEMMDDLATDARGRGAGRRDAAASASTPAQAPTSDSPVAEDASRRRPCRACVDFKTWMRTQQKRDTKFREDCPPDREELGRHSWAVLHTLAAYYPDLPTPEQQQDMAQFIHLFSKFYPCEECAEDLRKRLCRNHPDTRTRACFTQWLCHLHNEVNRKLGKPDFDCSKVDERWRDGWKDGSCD
Beta cell apopt: blocks beta cell apoptosis. protection from apoptosis, % (test concentration not listed). INS-1E cytokine-induced death, ATP luminescence, 48 h; percent of positive-control rescue, neutral wells zero. actives 0.8% (n = 300,000);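 active = all replicates at 75% or more, or half of them and the mean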;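 also: 0% = cytokine-treated negative control wells and 100% = positive control rescue; higher means more ATP so stronger rescue from cytokine killing; wells of about 40 µL received 100 nL stock; the first replicate is given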
rRNA inh HTS: inhibits bacterial ribosomal RNA function over humanized ribosomes | GFP signal change (wild-type ribosome), % (test concentration not listed) | E. coli WT GFP vs humanized-ribosome RFP mutants, fluorescence, 24 h; stronger effect = lower value; DMSO median 0, no signal -100 | AID 720706 | actives 1.6% (n = 350,000);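 active = significant combined selectivity score with lowered wild-type GFP, culture density cut under 30%, mutant RFP and density less affected; inactive = any of these conditions unmet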; also: one replicate is shown; some compounds called inactive have numbers as strong as hits
Calb FLC: C. albicans growth modulation with fluconazole. C. albicans CaCi-2 (fluconazole-resistant clinical isolate) + fluconazole, Alamar Blue growth, 48 h. growth inhibition, % (test concentration not listed). actives 0.57% (n = 300,000). AID 1979;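 active = most replicates above 75%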;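 also: all wells also contain fluconazole at 8 µg/ml as a sub-toxic cotreatment; 0% = median of DMSO wells and 100% = median of geldanamycin control wells; wells of about 8 µL received 7.5 nL stock; the first replicate is given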
rRNA inh HTS OD600: recorded beside rRNA inh HTS, whose call it bears; OD600 change, %; measured here: OD600 growth;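 optical density of the mix in the first replicate; 0 = DMSO median and -100 = no signal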
rRNA inh HTS RFP: recorded beside rRNA inh HTS, whose call it bears; RFP signal change, %; measured here: RFP humanized mutant strains;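 first replicate; 0 = DMSO median and -100 = no signal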
An asterisk follows results filed as active.

For COCc1c(C(=O)N2CCN(Cc3c(F)cccc3Cl)CC2)oc2ccccc12 the results were AF4-AF9 inh -0.7, T cruzi inh 25, FGF22 binding inactive, RanGTP-Impb inh 3.1, ALR inh -3, Beta cell apopt -1, rRNA inh HTS -12, Calb FLC 7, rRNA inh HTS OD600 -47 and rRNA inh HTS RFP -9.8.
Screening Cc1cc(N2CCN(c3nc(-c4ccc([N+](=O)[O-])cc4)cs3)CC2)c2ccccc2n1 returned AF4-AF9 inh 0.1, T cruzi inh 39, FGF22 binding inactive, RanGTP-Impb inh -9.6, ALR inh -12, Beta cell apopt -1, rRNA inh HTS -8, Calb FLC 15, rRNA inh HTS OD600 6 and rRNA inh HTS RFP -1.9.
CC(OC(=O)C1=COCCO1)C(=O)Nc1ccccc1C#N (stereo not drawn) was read as AF4-AF9 inh -5.3, T cruzi inh 8, FGF22 binding inactive, RanGTP-Impb inh -0.9, ALR inh -4, Beta cell apopt 0, rRNA inh HTS 11, Calb FLC 4, rRNA inh HTS OD600 6 and rRNA inh HTS RFP -0.7.
Screening Cc1ccc(S(=O)(=O)N2CCOCC2)cc1C(=O)Nc1ccc2c(c1)CCC2 returned T cruzi inh 7, RanGTP-Impb inh -1.1, ALR inh -2, Beta cell apopt -11 and Calb FLC 30.
COc1ccc(CNC(=O)c2cc(-c3ccco3)on2)cc1 was read as T cruzi inh 0, RanGTP-Impb inh -4.7, ALR inh -1, Beta cell apopt -4 and Calb FLC 2.
COc1ccc(CCNC(=O)COC(=O)C2CC2C)cc1 (stereo not drawn) was read as AF4-AF9 inh -2.2, FGF22 binding inactive, ALR inh 5, Beta cell apopt 1, rRNA inh HTS 7, rRNA inh HTS OD600 12 and rRNA inh HTS RFP -2.6.
`C/C(CC(=O)Nc1cccc(C(F)(F)F)c1)=N\NC(=O)C(=O)NCC(C)C` gave AF4-AF9 inh -5.4, T cruzi inh -2, FGF22 binding inactive, RanGTP-Impb inh -0.4, ALR inh -10, Beta cell apopt 1, rRNA inh HTS 1, Calb FLC -12, rRNA inh HTS OD600 1 and rRNA inh HTS RFP 2.3.
For Cc1ccc(-c2c[n+](Cc3cccc(Cl)c3)c3n2CCC3)cc1 the results were AF4-AF9 inh 3.0, T cruzi inh 67*, FGF22 binding inactive, RanGTP-Impb inh 2.9, ALR inh -3 and Calb FLC 0.
For COc1ccc(OCC(=O)OCC(=O)NCc2ccco2)cc1 the results were T cruzi inh -3, RanGTP-Impb inh 5.2, ALR inh 2, Beta cell apopt -5 and Calb FLC -4.
O=C(NCCN1CCN(c2ccccc2F)CC1)c1cccn2c(=O)c3ccccc3nc12 was read as T cruzi inh -3, RanGTP-Impb inh 11, ALR inh -6, Beta cell apopt 6 and Calb FLC -20.
Screening CC(C)c1ccccc1N1CC(C(=O)O)CC1=O (stereo not drawn) returned T cruzi inh -6, RanGTP-Impb inh -1.5, ALR inh 0, Beta cell apopt -7, rRNA inh HTS 29, Calb FLC -9, rRNA inh HTS OD600 13 and rRNA inh HTS RFP 2.3.
Screening Fc1ccc(Cn2c(SCc3ccc(F)c(C(F)(F)F)c3)nnc2C(F)(F)F)cc1 returned T cruzi inh 11, RanGTP-Impb inh 3.2, ALR inh -13, Beta cell apopt -4 and Calb FLC 28.
For O=C(NC(=S)NCC1CCCO1)c1ccc(Br)o1 (stereo not drawn) the results were AF4-AF9 inh 0.8, T cruzi inh 12, FGF22 binding inactive, RanGTP-Impb inh -0.4, ALR inh 3, Beta cell apopt -5, rRNA inh HTS 4, Calb FLC -21, rRNA inh HTS OD600 -1 and rRNA inh HTS RFP 0.9.
`Cc1cc(C)c(S(=O)(=O)N2CCOC2CNC(=O)C(=O)NCCN2CCOCC2)c(C)c1` (stereo not drawn) gave AF4-AF9 inh -0.7, T cruzi inh -5, FGF22 binding inactive, RanGTP-Impb inh 6.3, ALR inh -19, Beta cell apopt -1 and Calb FLC -9.
`COc1ccc(C(=O)Nn2c(C)nc3ccccc3c2=O)c(OC)c1` gave AF4-AF9 inh -0.6, T cruzi inh -6, FGF22 binding inactive, RanGTP-Impb inh 2.4, ALR inh -7, Beta cell apopt -3, rRNA inh HTS 0, Calb FLC 12, rRNA inh HTS OD600 2 and rRNA inh HTS RFP -2.1.
Cc1ccc(NC(=O)C(=O)NCCN2CCN(Cc3ccc([N+](=O)[O-])cc3)CC2)cc1 was read as AF4-AF9 inh 2.8, T cruzi inh -3, FGF22 binding inactive, RanGTP-Impb inh 0.0, ALR inh -2, Beta cell apopt 3, rRNA inh HTS 6, Calb FLC 0, rRNA inh HTS OD600 0 and rRNA inh HTS RFP -1.6.
For Cc1ccc(OCC(=O)NC(C)c2ccccc2)cc1 (stereo not drawn) the results were AF4-AF9 inh -1.2, T cruzi inh -5, FGF22 binding inactive, RanGTP-Impb inh -1.8, Beta cell apopt -3, rRNA inh HTS 2, Calb FLC 0, rRNA inh HTS OD600 5 and rRNA inh HTS RFP -0.4.
NC(=O)c1ccc(NC(=O)COC(=O)c2c3c(nc4ccccc24)/C(=C\c2ccc4c(c2)OCO4)CCC3)cc1 was read as AF4-AF9 inh -0.3, T cruzi inh 70*, FGF22 binding inactive, RanGTP-Impb inh -24, rRNA inh HTS 56, Calb FLC -10, rRNA inh HTS OD600 -20 and rRNA inh HTS RFP 1.2.
COC(=O)Cc1c(C)c2ccc(OCC(=O)N3CCOCC3)cc2oc1=O was read as T cruzi inh -8, RanGTP-Impb inh -1.5, ALR inh 7, Beta cell apopt -5 and Calb FLC 7.
Cc1cc(C)c2c(c1)-c1c(ssc1=S)C(C)(C)N2C(=O)CSc1nncn1C was read as T cruzi inh 16, RanGTP-Impb inh 0.3, ALR inh -3, Beta cell apopt 5 and Calb FLC 5.
`O=C(CSc1ccc(Cl)cc1)Nc1ccc(NC(=O)c2ccco2)cc1` gave T cruzi inh -12, RanGTP-Impb inh 3.1, ALR inh 100*, Beta cell apopt -6 and Calb FLC -12.
`CN(C)c1ccc(N2C(=O)CC(c3ccccc3)CC2=O)cc1` gave AF4-AF9 inh 0.4, T cruzi inh -3, FGF22 binding inactive, RanGTP-Impb inh 1.0, ALR inh 5, Beta cell apopt -4, rRNA inh HTS 6, Calb FLC -2, rRNA inh HTS OD600 -6 and rRNA inh HTS RFP 0.1.
`O=C(NC(=S)Nc1ccccc1Br)C1CCCC1` gave AF4-AF9 inh -7.7, T cruzi inh -18, FGF22 binding inactive, RanGTP-Impb inh -0.4, ALR inh 0, Beta cell apopt 0, rRNA inh HTS 0, Calb FLC -24, rRNA inh HTS OD600 10 and rRNA inh HTS RFP -0.4.
`COc1cccc(C2c3c(-c4ccccc4O)n[nH]c3C(=O)N2Cc2ccco2)c1` (stereo not drawn) gave AF4-AF9 inh 4.5, T cruzi inh 2, FGF22 binding inactive, RanGTP-Impb inh 1.2, ALR inh 9, Beta cell apopt 0, rRNA inh HTS -36, Calb FLC 17, rRNA inh HTS OD600 -49 and rRNA inh HTS RFP 35.
`CSCCC(NS(=O)(=O)c1ccc(C)cc1C)C(=O)Nc1cccnc1` (stereo not drawn) gave AF4-AF9 inh -4.7, FGF22 binding inactive, ALR inh 1, Beta cell apopt -2, rRNA inh HTS 3, rRNA inh HTS OD600 6 and rRNA inh HTS RFP 5.6.
C=CCNC(=O)C1CCN(S(=O)(=O)c2ccc3ccccc3c2)CC1 was read as AF4-AF9 inh -1.4, T cruzi inh 0, FGF22 binding inactive, RanGTP-Impb inh -0.2, ALR inh -10, Beta cell apopt -9, rRNA inh HTS -3, Calb FLC 0, rRNA inh HTS OD600 -4 and rRNA inh HTS RFP -2.1.
For CCC(CC)c1nnc(NC(=O)COc2ccc3c(C)cc(=O)oc3c2)s1 the results were T cruzi inh -1, RanGTP-Impb inh 5.4, ALR inh -4, Beta cell apopt 2 and Calb FLC 8.
`C=COCCNC(=O)C1CC(=O)N(c2ccc(C)cc2)C1` (stereo not drawn) gave T cruzi inh 7, RanGTP-Impb inh 1.0, ALR inh -24, Beta cell apopt -8 and Calb FLC 2.
`CCOC(=O)C(CC)n1cnc2c(nnn2-c2ccccc2)c1=O` (stereo not drawn) gave T cruzi inh -18, RanGTP-Impb inh 1.2, ALR inh -1, Beta cell apopt -5 and Calb FLC 2.
`O=C(C1COc2ccccc2O1)N1CCN(c2ccc([N+](=O)[O-])cc2)CC1` (stereo not drawn) gave AF4-AF9 inh 1.2, FGF22 binding inactive, ALR inh 3, Beta cell apopt -3, rRNA inh HTS -19, rRNA inh HTS OD600 -20 and rRNA inh HTS RFP -2.5.

In the list so far, 3 contain an aryl thioether with sulfur outside any ring.
Screening Fc1ccc(Cn2c(SCc3ccc(F)c(C(F)(F)F)c3)nnc2C(F)(F)F)cc1 returned T cruzi inh 11, RanGTP-Impb inh 3.2, ALR inh -13, Beta cell apopt -4 and Calb FLC 28.
Cc1cc(C)c2c(c1)-c1c(ssc1=S)C(C)(C)N2C(=O)CSc1nncn1C was read as T cruzi inh 16, RanGTP-Impb inh 0.3, ALR inh -3, Beta cell apopt 5 and Calb FLC 5.
`O=C(CSc1ccc(Cl)cc1)Nc1ccc(NC(=O)c2ccco2)cc1` gave T cruzi inh -12, RanGTP-Impb inh 3.1, ALR inh 100*, Beta cell apopt -6 and Calb FLC -12.

The list continues:
For O=C1[C@H]2C(c3ccccc3)=NN(c3ccccc3)[C@H]2C(=O)N1c1ccccc1 the results were AF4-AF9 inh -4.1, T cruzi inh -15, FGF22 binding inactive, RanGTP-Impb inh -0.8, ALR inh -3, Beta cell apopt 3, rRNA inh HTS 8, Calb FLC 13, rRNA inh HTS OD600 10 and rRNA inh HTS RFP -2.6.
`O=C(CSc1nc(N2CCOCC2)nc(N2CCOCC2)n1)Nc1cccc(C(F)(F)F)c1` gave AF4-AF9 inh -1.2, T cruzi inh 3, FGF22 binding inactive, RanGTP-Impb inh 0.9, ALR inh 9, rRNA inh HTS 6, Calb FLC -5, rRNA inh HTS OD600 14 and rRNA inh HTS RFP -2.4.
Screening CCOC(=O)C1CCN(S(=O)(=O)c2ccc3c(c2)CC(C)N3C(=O)C2CC2)CC1 (stereo not drawn) returned AF4-AF9 inh -19, T cruzi inh 9, FGF22 binding inactive, RanGTP-Impb inh 0.2, ALR inh -2, Beta cell apopt -2, rRNA inh HTS 1, Calb FLC -5, rRNA inh HTS OD600 -6 and rRNA inh HTS RFP 0.6.
Screening C=CCN1C(=O)C2(NNc3ccccc3O2)c2ccccc21 (stereo not drawn) returned T cruzi inh -5, RanGTP-Impb inh -52, ALR inh 26, Beta cell apopt 1 and Calb FLC 11.
For COc1cccc(CNC(=O)CCNS(=O)(=O)c2ccc3[nH]c(=O)oc3c2)c1 the results were T cruzi inh -13, RanGTP-Impb inh 1.9, ALR inh 15 and Calb FLC 0.
Screening O=C(CN1CCOCC1)Nc1ncc(Br)cc1Br returned T cruzi inh -10, RanGTP-Impb inh 2.7, ALR inh -4, Beta cell apopt -5 and Calb FLC -4.

A portion of the library (hit frequency here may not be typical).
